High-throughput results deposited in PubChem BioAssay by National Center for Advancing Translational Sciences (NCATS).
Sfp PPTase inh = Sfp phosphopantetheinyl transferase inhibition; Q9F4F7; Biochemical Sfp PPTase activity, qHTS; Potency, µM, inactives show max response, negative = inhibition, usual class: inhibitors; 310,000 tested, 3.5% active; active means well fitted inhibition curve with a large enough effect; inconclusive means small, poorly fitted or top-dose-only effect, or another doubt; inactive means no such curve, though single readings can be large or run the other way;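 further: the enzyme is Sfp with the accession as filed and its product quenches rhodamine fluorescence; potency means the concentration at half of the fitted maximal effect; 0% = enzyme reaction without inhibitor and -100% = no enzyme wells; top concentration of the series not given in the record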
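Step 1, compound plus 15 nM Sfp-PPTase, 15 min, room temperature. Step 2, add rhodamine-CoA (5 uM) and BHQ-2-YbbR (12.5 uM). Step 3, read 525/598 nm fluorescence at 0 and 30 min.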
CtBP-E1A blk = inhibitors of CtBP/E1A interaction; AlphaScreen GST-E1A/His-CtBP binding, 1536-well; active compounds read low; control for the full effect not named in the record; 340,000 tested, 0.49% active; activity change, % (concentration not given with the values); in the data active means activity change below about -65%; inconclusive means about -30% to -65%; inactive means above about -30%; further: on the % scale 0 is the no-effect control and ±100 the full control effect
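Steps: dispense buffer (Tris pH 8.0, NaCl 300 mM, TCEP 1 mM, BSA, Tween 20); add 5X protein mix (GST-E1A, His-CtBP, 125 nM each); pin 23 nL compound; 2 h at 37 °C, dark; add 5X beads (50 ug/mL); 1 h; read.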
TRPV1 PAM = potentiators of human vanilloid receptor 1 (TRPV1) | TRPV1-expressing cells, Fluo-8 calcium influx, capsaicin EC20 potentiation; host cell line not named in the record; control for the full effect not named in the record | Q8NER1 | potentiation, % at 8.33 µM | AID 540277 | 320,000 tested, 0.02% active; active means potentiation above 80%; inconclusive means 30% to 80%; inactive means below 30%; further: 0% is about no effect
Target sequence (Q8NER1 whole entry, looked up): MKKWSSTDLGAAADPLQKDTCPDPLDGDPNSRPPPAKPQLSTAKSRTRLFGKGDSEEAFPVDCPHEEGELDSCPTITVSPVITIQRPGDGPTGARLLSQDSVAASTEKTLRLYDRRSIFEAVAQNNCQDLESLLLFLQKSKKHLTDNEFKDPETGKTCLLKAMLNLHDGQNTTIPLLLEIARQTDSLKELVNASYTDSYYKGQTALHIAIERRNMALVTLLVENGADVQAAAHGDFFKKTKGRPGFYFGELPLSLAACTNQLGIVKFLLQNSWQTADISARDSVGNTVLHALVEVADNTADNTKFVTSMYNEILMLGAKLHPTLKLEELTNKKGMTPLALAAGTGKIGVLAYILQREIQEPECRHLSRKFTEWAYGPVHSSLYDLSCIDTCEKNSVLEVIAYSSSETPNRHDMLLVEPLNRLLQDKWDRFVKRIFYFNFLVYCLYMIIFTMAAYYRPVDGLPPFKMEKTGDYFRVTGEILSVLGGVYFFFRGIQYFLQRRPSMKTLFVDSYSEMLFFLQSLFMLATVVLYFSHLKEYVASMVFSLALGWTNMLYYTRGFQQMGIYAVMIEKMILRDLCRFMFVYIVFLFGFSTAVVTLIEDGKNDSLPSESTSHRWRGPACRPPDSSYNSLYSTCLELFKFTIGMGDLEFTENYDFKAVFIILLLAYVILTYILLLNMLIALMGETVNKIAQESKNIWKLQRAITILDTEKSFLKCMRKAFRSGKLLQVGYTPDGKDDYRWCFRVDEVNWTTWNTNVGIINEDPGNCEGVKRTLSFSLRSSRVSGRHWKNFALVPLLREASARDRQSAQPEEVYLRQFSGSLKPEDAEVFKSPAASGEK
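Fluo-8 calcium influx in TRPV1-expressing cells, kinetic read (ex 480/em 520 nm). Compound added and read 3 min for agonist activity, followed by capsaicin at EC20 final and 2 min further read for enhancement.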
gsp agonist = activates gsp, the McCune-Albright syndrome mutation | gsp mutant cells, cAMP HTRF, 30 min; control for the full effect not named in the record | Potency, µM (doses to about 76.9 µM), for the others: top-dose activation (cAMP increase), hits mostly activators | 340,000 tested, 0.13% active | AID 624287; active = well fitted activation curve with a large enough effect; inconclusive = small, poorly fitted or top-dose-only effect, or another doubt; inactive = no such curve, though single readings can be large or run the other way; cell line not stated here;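 further: phosphodiesterase inhibitor Ro 20-1724 added with compounds to block cAMP breakdown; potency means the concentration at half of the fitted maximal effect; nearly all actives have a fitted effect of over 60% in size; about a fifth of the inactives were tested at one dose only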
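Cells in DMEM/10% FBS with G418 were pretreated with compounds in DMSO plus […] (300 uM stock) for 30 min at 37C. cAMP was measured by HTRF (cAMP-d2 plus anti-cAMP antibody-K) after 30 min at room temperature.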
gsp antagonist = antagonists of gsp mutant (McCune-Albright syndrome). Potency, µM (highest dose often 76.9 µM), without a hit: at the top dose activity change, negative = inhibition, usual class: inhibitors. gsp-mutant cells, cAMP HTRF, 30 min; control for the full effect not named in the record. 340,000 tested, 0.4% active. AID 624288; active = falling curve of any shape with a large fitted effect; inconclusive = falling curve, mostly with a smaller effect; inactive = flat or rising curve; cell line not stated here;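 further: intracellular cAMP measured with PDE inhibitor Ro 20-1724 present during compound exposure; potency means the concentration at half of the fitted maximal effect; on the % scale 0 is the no-effect control and ±100 the full control effect; nearly all actives have a fitted effect of over 65% in size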
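G418-selected cells were plated in DMEM/10% FBS for 16-24 h at 37C, then treated with compounds plus the PDE inhibitor […] (300 uM solution added) for 30 min at 37C. Intracellular cAMP was measured by HTRF after 30 min lysis at room temperature.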
ClpP mod = qHTS Assay for Activators of ClpP; ATP-dependent Clp protease proteolytic subunit (Bacillus subtilis (strain 168)), P80244; purified B. subtilis ClpP, FRET peptide cleavage, 20 min; Potency, µM (highest dose often 57.5 µM), without a hit: at the highest dose activity change, negative = active; 340,000 tested, 1.9% active; AID 651965, 2013; active = well fitted falling curve with a large enough effect; inconclusive = small, poorly fitted or top-dose-only effect; inactive = no such curve, though single readings can be large or run the other way; further: potency means the concentration at half of the fitted maximal effect; the source files actives as falling curves though it sought activators and does not explain the sign; nearly all actives have a fitted effect of over 65% in size; many hits overshoot -100%
Target sequence (P80244 whole entry, looked up): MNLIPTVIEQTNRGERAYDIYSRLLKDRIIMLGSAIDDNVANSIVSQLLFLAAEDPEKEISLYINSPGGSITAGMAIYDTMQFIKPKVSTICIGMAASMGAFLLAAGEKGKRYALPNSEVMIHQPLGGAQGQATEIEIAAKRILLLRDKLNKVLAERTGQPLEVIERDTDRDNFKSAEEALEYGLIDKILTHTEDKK
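ClpP 10 microg/mL final, pH 8 Tris/KCl buffer with BSA, glycerol, Tween-20; compound pinned in; FRET-FV substrate; RT 20 min; Ex320/Em430; ΔFRET vs ADEP 5.8 microM, DMSO, no enzyme.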
Menin MLL FP FL = inhibitors of human menin-MLL interaction, wild-type MLL peptide; Fluorescence polarization, fluorescein-MLL peptide displacement from menin; FP activity change, % at 61.4 µM; 290,000 tested, under 10 active; inconclusive = falling polarisation curve, or a change in total fluorescence; inactive = total fluorescence flat and polarisation flat or rising; no compound was filed as active; the % refers to the polarisation; negative = inhibition;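 further: % of control where 0% means no effect; inhibitors lower the polarisation; unlabelled MLL peptide was the positive control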
* marks the source's active call; other numbers are inactive results; u = inconclusive; x = not tested or not shown; [ ] = another dose, or the depositor's remark.

SMILES	Sfp PPTase inh	CtBP-E1A blk	TRPV1 PAM	gsp agonist	gsp antagonist	ClpP mod	Menin MLL FP FL
CON(C)c1nc(OCCNC(=O)OCc2ccc(Cl)cc2C)nc(N(C)C)n1	13.8%	-2.4	0.3	-20.8%	-4.9%	-1.9%	4.7
Cc1[nH]c2ccccc2c1C(=O)C(=O)NCCCc1ccccc1	11.6%	x	u	-32.9%	2.3%	0.6%	x
COC(=O)c1ccccc1NC(=O)CCCN1C(=O)C(c2ccccc2)Oc2cccnc21 (configuration not stated)	1.8%	0.9	1.0	-7.3%	-4.7%	u	-2.5
COc1cc(C2C(C(=O)OCCC#N)=C(C)NC3=C2S(=O)(=O)c2ccccc23)cc(OC)c1OC (configuration not stated)	-0.9%	-0.1	-4.0	22.7%	10.8%	0.0%	1.1
CN(C)/C=N/C(=S)Nc1ccccc1F	-24.6%	-1.4	6.9	-13.4%	5.3%	0.2%	3.3
COCCNC(=O)NC(=O)CN1CCN(C(c2ccccc2)c2ccccc2)CC1	6.6%	-2.8	-14.7	-20.5%	7.2%	x	1.0
C=CCn1c(=O)c2c(nc3n2CCCN3Cc2ccccc2)n(C)c1=O	15.4%	x	-0.9	9.3%	-3.8%	-0.6%	0.2
Cc1cc(C)n2[nH]c(=O)c(N=Nc3ccccc3)c2n1	-0.7%	-0.3	u	19.9%	-25.0%	-0.2%	8.9
COC(=O)C1=C(C)NC(C)=C(C(=O)OC)C1c1cn(-c2ccccc2)nc1-c1ccco1	u	-9.6	-1.6	4.4%	-25.3%	28.2µM*	1.6
COc1ccc(C(CNC(=O)c2cccc(S(=O)(=O)Nc3ccc(F)cc3)c2)N(C)C)cc1 (configuration not stated)	x	0.4	21.0	-12.2%	5.0%	-0.8%	x
CCOC(=O)c1sc(=NC(=O)c2ccco2)n(C)c1C	11.3%	7.1	-15.5	0.0%[15.4 µM]	-2.3%	x	0.2
COc1cc(C(=O)NCc2cc3cc(Cl)ccc3n2C)cc(OC)c1OC	9.7%	-1.5	4.8	11.3%	-10.9%	-5.6%	-4.8
COC(=O)c1[nH]c2c(c1C(=O)OC)CCc1ccccc1-2	-6.1%	1.0	3.2	-2.2%[15.4 µM]	-13.0%	1.4%	1.2
O=C(NCc1cc(Br)cc(Br)c1OC(=O)c1ccccc1[N+](=O)[O-])c1ccccc1	16.6%	u	18.1	-4.3%[15.4 µM]	2.4%	0.6%	4.7
CCOC(=O)NC(=S)Nc1c(C)n(C)n(-c2ccccc2)c1=O	22.2%	-5.3	4.7	14.5%[15.4 µM]	x	x	0.0
CCOc1ccc(NC(=O)c2ccc(C#CC(C)(C)O)cc2)cc1	15.5%	0.7	-1.7	-2.6%	-0.7%	0.2%	2.5
N#Cc1c(Nc2ccccc2)c(C=NCCN2CCOCC2)c[nH]c1=O	-20.3%	-2.8	-7.7	11.8%	2.9%	-2.5%	-27.2
Cn1c(N)c(C(=O)COC(=O)c2ccc(S(=O)(=O)N3CCCCC3)cc2)c(=O)n(C)c1=O	-7.0%	x	7.4	x	x	x	-0.6
O=C1CC(NS(=O)(=O)c2ccc([N+](=O)[O-])cc2)CN1c1ccc2c(c1)OCCO2 (configuration not stated)	x	-4.0	-7.9	7.0%	1.7%	-25.2%	x
CCCCN1C(=O)/C(=C/C=C2\Oc3ccccc3N2CC)SC1=S	-26.1%	2.9	25.8	-4.5%	7.5%	2.5%	u
O=C(NCC(=O)N(CC1CCCO1)C(C(=O)NC1CCCC1)c1ccc(F)cc1)c1ccco1 (configuration not stated)	8.9%	2.4	7.7	-46.3%[inhibitor]	5.8%	-1.4%	3.5
CN(C)c1ccc(CNc2ccc3c(c2)ncn3C(C)(C)C)cc1	-28.9%	-15.9	-7.9	29.0%	-14.0%	-4.7%	-6.1
CN1CCN(CP(=O)(N2CCOCC2)N2CCOCC2)CC1	5.8%	9.4	5.4	-8.8%	14.8%	-0.7%	1.1
O=C(NCc1ccc2c(c1)OCO2)C1CCN(c2ncccn2)CC1	17.6%	-3.0	19.1	10.9%	6.0%	-25.5%	2.4
Cc1ccccc1NC(=O)COC(=O)c1c[nH]c(=O)[nH]c1=O	9.8%	13.0	19.6	-7.7%[15.4 µM]	11.7%	x	-1.0
CCCCCSc1nc2c(c(=O)[nH]c(=O)n2C)n1CC	x	19.7	x	-4.5%	18.4%	1.6%	x
Cn1cnc([N+](=O)[O-])c1Oc1cccc2ccccc12	-17.3%	-3.8	4.8	-4.3%	6.4%	1.4%	2.4
CCCCN(C(=O)c1cc(-c2ccco2)nc2ccccc12)c1c(N)n(CCCC)c(=O)[nH]c1=O	x	-3.8	11.1	3.4%[15.4 µM]	1.3%	x	x
CC(=O)N1/C(=C/c2ccc(N(C)C)cc2)C(=O)c2ccccc21	-25.9%	-3.5	-14.0	-15.5%	13.1%	10.0%	13.6
Cc1ccc2c(c1)N(C(=O)CCC(=O)NCCCN1CCN(C)CC1)CCO2	10.8%	27.1	7.7	13.8%	8.8%	0.3%	3.0
CCCC[n+]1ccn(-c2nc3c([N+](=O)[O-])cccc3n2C)c1	1.9%	x	4.2	-41.4%[inhibitor]	-2.4%	-0.3%	3.0
NCCCC[C@@H](C(=O)N1CCNCC1)n1cc([C@@H](N)CO)nn1	16.3%	-5.5	10.3	-3.8%	7.6%	-1.1%	-2.5
Cc1nc(NC(=O)C2CC2)sc1C(=O)Nc1cccc(Cl)c1	16.6%	5.6	-3.6	-4.8%	-18.2%	x	-0.1
O=C(NC1CCN(C(=O)c2ccccc2Br)CC1)c1ccccc1	5.7%	-6.2	-2.0	1.9%	-1.1%	x	2.9
Cc1ccc(C(=O)n2nnc3ccccc32)cc1[N+](=O)[O-]	-18.7%	5.6	-4.2	6.8%	-5.1%	-1.0%	-0.1
O=C(CN1C(=O)/C(=C\c2cccc(F)c2)Oc2ccccc21)N1CCN(c2ccccn2)CC1	8.3%	4.7	10.6	u	13.1%	-73.7%	2.8
Cc1ccc(NC(=S)N2CC(C)OC(C)C2)cc1C (configuration not stated)	13.6%	1.4	5.0	-41.4%[inhibitor]	11.4%	-1.9%	x
CN(Cc1ccccc1)C(=O)c1ccc(Cl)c([N+](=O)[O-])c1	7.9%	9.5	-0.5	-14.6%	-13.2%	-0.5%	3.5
NC(=O)C1CCN(CC(=O)NCc2ccccc2)CC1	9.8%	-2.4	0.4	u	4.2%	-0.8%	0.0
CC12CN3CC(C)(CN(C1)C3c1ccc([N+](=O)[O-])o1)C2 (configuration not stated)	10.4%	8.1	-2.5	-21.6%[15.4 µM]	4.4%	0.7%	-3.5
Cc1cc(NC(=O)C2CC(=O)N(c3ccccc3C)C2)no1 (configuration not stated)	-2.0%	-7.4	23.6	-0.3%[15.4 µM]	18.5%	x	-6.2
COc1ccc(CNC(=O)c2cc(C3CC3)nc3c2cnn3C(C)C)cc1OC	x	-12.6	-14.0	6.4%	-4.2%	34.7%	x
O=C(NC1CCCCCC1)c1cccnc1Sc1ccccc1	10.0%	-10.3	-5.1	-54.4%[inhibitor]	6.7%	-0.2%	4.2
COc1ccc(N/C=C(\C#N)c2nc3ccccc3n2C)c(OC)c1	11.6%	-22.2	14.2	12.1%	-4.1%	-3.5%	5.9
O=C1Nc2cc3c(cc2C1=O)sc1ccccc13	-1.8%	2.7	6.2	-2.8%[15.4 µM]	-9.2%	x	1.4
COc1cccc(NC(=O)CN(C)C(=O)CCc2nc3sc4c(c3c(=O)[nH]2)CCCC4)c1	0.5%	-2.2	u	-7.6%[15.4 µM]	-3.0%	-5.1%	x
COCCCNCCCOc1ccc(C)cc1Br	-27.4%	7.2	-10.5	12.3%	-6.5%	1.5%	-1.2
COc1ccc(C2CC(=O)c3c(C)nc(N4CCN(Cc5ccccc5)CC4)nc3C2)cc1OC (configuration not stated)	-20.5%	u	8.8	-10.3%	-17.4%	-10.0%	-0.3
O=[N+]([O-])c1cccc(-c2nc(-c3ccccc3)no2)c1	-2.7%	5.7	20.1	-11.3%[15.4 µM]	9.4%	x	0.7
CCCCCn1c(=O)[nH]c2cc(C(=O)N3CCN(c4ccc(F)cc4)CC3)ccc2c1=O	x	2.6	x	-19.4%	-9.0%	x	x
COc1ccc(C(=O)N(Cc2ccccc2)c2cccc(C)c2)cc1S(=O)(=O)N1CCOCC1	x	-7.2	-11.0	1.6%	4.1%	-0.9%	x
CCC(C)C(NC(=O)c1ccccc1NC(=O)c1ccc(OC)cc1)C(=O)NCc1ccco1 (configuration not stated)	u	13.6	6.2	23.7%	-4.7%	-21.2%	1.5
CCCOC1CCCN(C(=O)CCc2nnc(Cc3cccc(C)c3)o2)C1 (configuration not stated)	15.1%	5.3	-2.7	-7.4%	1.7%	x	0.5
CN(C)c1nc(N(C)C)n(C(=O)c2cccs2)n1	23.0%	0.0	-4.2	-5.5%[15.4 µM]	x	x	-2.3
CCN(c1ccccc1)S(=O)(=O)c1ccc(F)c(C(=O)O)c1	-7.6%	1.7	-11.8	5.1%	-3.9%	0.1%	2.2
O=C(COC(=O)C1CCC1)Nc1ccc(OC(F)F)cc1	9.5%	-2.4	-8.3	2.9%	10.4%	0.9%	-0.9
O=C(N/N=C/C(Br)=C/c1ccccc1)c1ccc([N+](=O)[O-])cc1	11.7%	x	-4.1	-5.3%	-7.3%	-2.1%	1.8
COc1ccc(NC(=O)Nc2cccc3c2O[C@H](CN(C)C(=O)Nc2ccc(C(F)(F)F)cc2)[C@@H](C)CN([C@H](C)CO)C3=O)cc1	x	-2.7	x	u	-23.6%	0.2%	x
C[C@@H]1CC=C[C@H]2[C@H]1C(=O)N(Cc1ccccc1)[C@H]2c1ccc(-c2ccoc2)cc1F	u	23.1	-26.3	x	-9.7%	-1.7%	0.9
COc1cccc(C(C2C(=O)CC(C)(C)CC2=O)C2C(=O)CC(C)(C)CC2=O)c1	-28.8%	x	12.6	-22.5%	-2.8%	-5.5%	-9.4
CCOC(=O)c1c(NC(=O)c2ccn(CC)n2)sc2c1CCC2	-18.1%	10.5	-11.2	3.4%[15.4 µM]	u	u	5.3
Nc1ccc(-n2nc3ccccc3n2)cc1	x	22.5	x	18.7%	1.7%	x	x
